From PubChem BioAssay
VACV mCherry inh: qHTS for Stage-Specific Inhibitors of Vaccinia Orthopoxvirus: mCherry Reporter Primary qHTS; Potency, µM (highest dose often 36.5 µM), without a hit: at the highest dose activity change, negative = inhibition, hits mostly inhibitors; hit rate 0.63% among 310,000; AID 720579, 2013; Vaccinia virus mCherry reporter infection, fluorescence; about a quarter of the inactives have no number; active = well fitted inhibition curve with a large enough effect; inconclusive = small, poorly fitted or top-dose-only effect; inactive = no such curve, though single readings can be large or run the other way; tested in A549 cells; also: nearly all actives have a fitted effect of over 35% in size; inactives centre near -10
Vaccinia Venus: qHTS for Stage-Specific Inhibitors of Vaccinia Orthopoxvirus: Venus Reporter Primary qHTS. Vaccinia virus Venus reporter expression, fluorescence. AID 720580, 2013. hit rate 0.46% among 330,000. Potency, µM (series often up to 36.5 µM), for the others: at the top dose activity change, negative = inhibition, hits mostly inhibitors; active means well fitted inhibition curve with a large enough effect; inconclusive means small, poorly fitted or top-dose-only effect; inactive means no such curve, though single readings can be large or run the other way; tested in A549 cells; also: nearly all actives have a fitted effect of over 30% in size; inactives centre near -10
Active calls of the source: *; i = inactive; ? = inconclusive; · = not tested or not shown; & = joins results of further samples; [ ] = dose if it differs, or a comment. % is scaled to controls: 0 for no effect and ±100 for the full control effect; potency is read from the fitted curve at half-maximal effect.

SMILES	VACV mCherry inh	Vaccinia Venus
COc1ccc(CN(C(=O)Nc2cccc(OC)c2)C2CCN(C(C)=O)CC2)cc1	-7.9%	-4.8%
Cc1cccc(N2CCN(C(=O)C3CC(=O)N(C4CCCC4)C3)CC2)c1C (centres undefined)	-28.6%	-11.8%
COc1ccc(CNC(=O)C2=Cc3cccc(OC)c3OC2)cc1OC	-5.5%	-7.9%
O=C(CCNS(=O)(=O)c1ccc(Cl)cc1)N1CCN(Cc2ccccc2)CC1	-25.9%	-18.3%
Cc1csc(SCC(=O)Nc2oc(C)c3c(C)n[nH]c(=O)c23)n1	-19.0%	-9.6%
CCOc1ccc(NC(=O)CC2C(=O)N(c3ccc(OC)cc3)C(=O)N2CCC2=CCCCC2)cc1 (centres undefined)	-9.2%	-3.1%
Cc1ccc(S(=O)(=O)N2CC3CCCC2C3)cc1 (centres undefined)	i	-2.3%
CN(CCc1ccccn1)C(=O)CCNC(=O)Cn1cnc2ccccc2c1=O	-6.7%	-5.4%
CCCc1cc(=O)oc2cc(OCC(=O)N(C)C)c(Cl)cc12	·	-12.2%
COc1ccc(S(=O)(=O)N2CCOCC2)cc1C(=O)NC1CCCCC1	-19.9%	-18.3%

Looked up by structure from above (seven):
SMILES	VACV mCherry inh	Vaccinia Venus
CCOc1ccc(NC(=O)CC2C(=O)N(c3ccc(OC)cc3)C(=O)N2CCC2=CCCCC2)cc1 (centres undefined)	-9.2%	-3.1%
Cc1csc(SCC(=O)Nc2oc(C)c3c(C)n[nH]c(=O)c23)n1	-19.0%	-9.6%
CCCc1cc(=O)oc2cc(OCC(=O)N(C)C)c(Cl)cc12	·	-12.2%
Cc1cccc(N2CCN(C(=O)C3CC(=O)N(C4CCCC4)C3)CC2)c1C (centres undefined)	-28.6%	-11.8%
Cc1ccc(S(=O)(=O)N2CC3CCCC2C3)cc1 (centres undefined)	i	-2.3%
COc1ccc(S(=O)(=O)N2CCOCC2)cc1C(=O)NC1CCCCC1	-19.9%	-18.3%
O=C(CCNS(=O)(=O)c1ccc(Cl)cc1)N1CCN(Cc2ccccc2)CC1	-25.9%	-18.3%

(continued)
SMILES	VACV mCherry inh	Vaccinia Venus
COC(=O)C1=C(C)NC(C)=C([N+](=O)[O-])C1c1ccccc1C(F)(F)F (centres undefined)	-23.4%	-20.0%
CCN(Cc1ccccc1)S(=O)(=O)c1ccc(C(=O)N(CCCN(C)C)c2nc3cc4c(cc3s2)OCCO4)cc1	-26.8%	?
Nc1c(N(CCC2=CCCCC2)C(=O)COc2ccc([N+](=O)[O-])cc2)c(=O)[nH]c(=O)n1Cc1ccccc1	-10.4%	-5.3%
CN(C)S(=O)(=O)c1cccc(C(=O)OCC(=O)NCc2ccc3c(c2)OCO3)c1	?	-9.4%
COc1ccccc1CNC(=O)C/C(C)=N/NC(=O)Cc1ccc(OC)c(OC)c1	i	-7.8%
CC1CCc2[nH]c3ccc(C(=O)N(C)CC(=O)Nc4ccc(F)cc4)cc3c2C1 (centres undefined)	-3.0%	-19.4%
COc1cccc(C(=O)NNC(=O)c2cccnc2)c1	-14.1%	-9.2%
CN(C)C=NC(=O)c1cn(-c2ccc(F)cc2)c(=O)c2ccccc12	i	-7.8%
COc1ccc2oc(-c3ccc(C)c(NC(=O)COc4cc(C)cc(C)c4)c3)nc2c1	-10.6%	-4.1%
CCc1cccc(C)c1NC(=O)COC(=O)CC1CCCC1	4.8%	-3.0%
COc1ccccc1S(=O)(=O)Nc1cccc(S(=O)(=O)N2CCCC2)c1	-5.9%	-27.4%
Cc1cccc(C)c1NC(=O)COC(=O)c1ccccc1O	-4.9%	6.0%
Cc1ccc(S(=O)(=O)N2CCCN(c3nc(-c4cccs4)nc4ccccc34)CC2)cc1	-3.4%	-15.7%
C=CCn1c(SCC(=O)Nc2ncc(Cc3cc(Cl)ccc3Cl)s2)nnc1-c1ccncc1	·	-8.9%
O=C(c1ccncc1)N1CCN(C(=O)c2cccc3ccccc23)CC1	·	-12.6%
CCC(=O)Nc1ccc(NC(=O)CN2CCCC(C)C2)c(Cl)c1 (centres undefined)	·	-14.0%
CC(C)(C)NC(=O)C(c1ccccc1)N(C(=O)CNC(=O)c1cccs1)c1cccnc1 (centres undefined)	-5.7%	-4.4%
CCc1cccc2c(C(=O)CCl)c[nH]c12	-20.4%	-17.5%
O=C(Cc1ccc(NC(=O)C2CCCN(C(=O)C3CCCCC3)C2)cc1)Nc1cccc(C(=O)N2CCCC2)c1 (centres undefined)	i	-28.6%
Cc1sc2nc(CC(=O)N3CCCC3)[nH]c(=O)c2c1C	-13.5%	-7.3%

Some of the entries above in a different format.
| Structure | VACV mCherry inh | Vaccinia Venus |
| --- | --- | --- |
| CC1CCc2[nH]c3ccc(C(=O)N(C)CC(=O)Nc4ccc(F)cc4)cc3c2C1 (centres undefined) | -3.0% | -19.4% |
| COc1ccc(CNC(=O)C2=Cc3cccc(OC)c3OC2)cc1OC | -5.5% | -7.9% |
| O=C(c1ccncc1)N1CCN(C(=O)c2cccc3ccccc23)CC1 | · | -12.6% |

Later entries.
SMILES	VACV mCherry inh	Vaccinia Venus
COCCNc1nc(NCc2ccccc2F)c2sccc2n1	-22.9%	-10.6%
COc1ccccc1OCCn1nc2ccccc2c1OC	-23.5%	-3.7%
CCOc1ccccc1CNC(=O)CN1C(=O)c2cccnc2Oc2ccc(C)cc21	-10.3%	-8.0%
CCc1ccc(C(C(=O)NC(C)(C)CC)N(Cc2ccco2)C(=O)Cn2nnc3ccccc32)cc1 (centres undefined)	-17.7%	-16.4%
Nc1c(Cl)cc(C2=NCCn3c2c2ccc(C(F)(F)F)cc2[n+]3[O-])cc1Cl	i	-15.8%
CCC(=O)N1CCc2cc(Br)cc(S(=O)(=O)N(C)c3ccc(OC)cc3OC)c21	?	-18.0%
CCC(C)c1ccccc1NC(=O)CN(CC)CC(=O)Nc1ccc2c(c1)OCCO2 (centres undefined)	-18.3%	-11.7%
COc1ccc(NC(=O)c2sc3nc(C)c(C(=O)Nc4ccc(C)cc4C)c(-c4ccccc4Cl)c3c2N)cc1	-2.9%	-13.1%
CC1=NN(C(=O)Cn2nc([N+](=O)[O-])c(Br)c2C)C(O)(C(F)(F)F)C1 (centres undefined)	i	-6.0%
Cc1ccc(S(=O)(=O)CCC(=O)OCc2nnc(-c3ccccc3)o2)cc1	i	-14.5%
COc1cccc2c(=O)c3ccccc3oc12	10.8%	-9.5%&-14.9%
CC(C)(C)CN1C(=O)C(=O)NC[C@@H]1CCCCN	-13.3%	-8.9%
O=c1[nH]c(CN(CCO)CCO)nc2c1C1(CCCCC1)Cc1ccccc1-2	-22.5%	-13.4%
CN(C(=O)c1cccc(NC(=O)Cc2ccc(NC(=O)C3CCCN(C(=O)C4CC4)C3)cc2)c1)C1CCC1 (centres undefined)	-1.0%	1.9%
CC(=O)c1c(N2CCN(C)CC2)nc(=S)n(-c2cc(C)ccc2C)c1C	i	10.3%
CC1=C(C(=O)O)N2C(=O)[C@@H](NC(=O)CCCC(=O)O)[C@H]2SC1	-10.4%	-6.3%
CSc1ccccc1OCc1cc(C(=O)NCCC2CCCCO2)no1 (centres undefined)	-20.3%	-9.5%
Cc1ccnn1-c1ccc(C(=O)NCc2ccccc2CN2CCOCC2)cc1	-0.4%	-1.8%
N#C/C(=C\c1ccccc1)c1nc(-c2cc3cc(Br)ccc3oc2=O)cs1	-1.7%	6.3%
Cc1cccc(NC(=O)Nc2cccnc2)c1C	-12.2%	-6.9%
Cc1c(NC(=O)COc2c(F)c(F)c(F)c(F)c2F)c(=O)n(-c2ccccc2)n1C	i	-1.8%
O=C(O)c1cccc2c1C(=O)c1ccc(-c3ccc(F)cc3F)cc1S2(=O)=O	-5.4%	0.8%
Oc1ccccc1N1CCN(c2ncnc3sc(-c4ccccc4)cc23)CC1	?	2.3%
O=[N+]([O-])c1ccc(NC2CCCC2)cc1	-1.5%	-17.8%
CC(=O)NC(c1ccccc1)c1nc(-c2ccc(S(C)(=O)=O)cc2)cs1 (centres undefined)	7.1%	-10.4%
COc1cccc(C(=O)N2CCN(Cc3nc(-c4ccoc4)oc3C)CC2)c1	-23.0%	-11.2%
CC(C)(C)C1CCC(=O)N(CCSc2ccccc2)CC1 (centres undefined)	-19.3%	-14.9%&-14.2%
COc1ccccc1NC(=O)C1=C(C)Nc2nc(SCc3cc(C)ccc3C)nn2C1c1ccccc1 (centres undefined)	?	-21.1%
CC(C)(C)c1ccc(C(=S)N2CCN(c3ccccc3)CC2)cc1	-14.2%	-22.7%
Cc1cc(NC(=O)COC(=O)COc2ccc3c4c(c(=O)oc3c2)CCC4)no1	-9.9%	-1.7%
CC1C2C(C)N(C)C(=O)N(C)C2N(C)C(=O)N1C (centres undefined)	-9.5%	-3.8%
CCOC(=O)c1c(-c2ccc(N(C)C)cc2)oc2c1C(OC)CC2 (centres undefined)	4.8%	0.7%
COc1ccc(C(=O)N2CCN=C2SC)cc1OC	-12.7%	-2.9%
CC(C)N(C)C(=O)CCc1nnc(CCc2c[nH]c3ccccc23)o1	i	-12.1%
COc1ccc(C2CC(c3ccccc3)=NN2C(=O)CN2N=NC3C(=O)N(c4cccc(F)c4)C(=O)C32)cc1 (centres undefined)	i	-7.6%
COc1ccc(C2(C(=O)Nc3ccccc3)CCOCC2)cc1	i	1.7%
CCOc1ccc(NC(=O)CCC(=O)NNC(=O)COc2ccc(C)cc2)cc1	-21.8%	-3.2%
Nn1c(SCC(=O)Nc2ccc(OC(F)F)cc2)nnc1-c1ccco1	i	-5.1%
O=C(/C=C/c1ccco1)Nc1cccc(S(=O)(=O)N2CCOCC2)c1	-8.7%	-17.6%
Cn1cccc1CN1CCN(C(=O)COc2ccccc2)CC1	·	-17.8%
Cc1cc(C)n2nc(SCC(=O)N(C)C3CCCCC3)nc2n1	-13.7%	3.4%
CC1CN(S(=O)(=O)c2ccc(C(=O)N3c4ccccc4CC3C)cc2)CC(C)O1 (centres undefined)	-13.8%	0.2%
Cc1cccc(CNC(=O)c2ccc(N3Cc4ccccc4Oc4ncccc43)s2)c1	-4.0%	-7.6%
O=C1C(c2c(O)[nH]c3ccccc23)=Nc2ccccc21	-8.7%	-1.8%
NC(=O)CN1C(=O)NC2(CCCc3ccccc32)C1=O (centres undefined)	-2.4%	2.9%
CC(C)(C)c1nnc(NS(=O)(=O)c2ccc(F)cc2)s1	i	-6.8%
Cc1cc(Cl)ccc1OCC(=O)NNC(=O)C1CCCO1 (centres undefined)	i	-5.3%
O=C(COc1ccc(Cl)cc1)N/N=C/CCc1ccccc1	-13.5%	-4.9%
CCOC(=O)c1cccc(NC(=O)Nc2ccc3c(c2)N(C)C(=O)c2ccccc2S3)c1	-21.9%	-22.6%
Cc1ccc(S(=O)(=O)N2CCC(=O)N([C@H](COCc3ccc(Cl)cc3)C(C)C)CC2)cc1	-3.6%	-10.6%

Next results:
SMILES	VACV mCherry inh	Vaccinia Venus
COCCCNC(=O)c1cccc(NC(=O)c2ccccc2)c1	-13.3%	-8.4%
CCc1ccc(CNC(=O)C2CCN(c3nn4cc(-c5ccc(OC)cc5)nc4s3)CC2)cc1	-5.6%	-13.5%
O=C(OCC(=O)N1CCOCC1)c1cc(-c2ccccc2)nc2ccccc12	-11.9%	-8.3%
CCCNC(=O)OCc1cccnc1Sc1ccc(C)cc1	-3.1%	4.1%
COc1ccc(S(=O)(=O)n2nc(-c3ccco3)nc2NCc2ccc(C(C)C)cc2)cc1	-18.1%	-18.7%
CCOC(=O)Nc1ccc2c(c1)N(C(=O)N(C)C)c1ccccc1CC2	·	?
COc1nc(OCCNS(=O)(=O)c2ccc(C)cc2)nc(N(C)C)n1	0.8%[7.34 µM]	5.8%[7.34 µM]
Cc1ccc(CN2CCC[C@]3(N[C@H](c4ccc(C(F)(F)F)cc4)[C@@H]4C(=O)N(C)C(=O)[C@@H]43)C2=O)cc1	?	-26.3%
CCCOc1ccc([N+](=O)[O-])cc1C1NC(=S)NC(c2ccccc2)=C1C(=O)OCC (centres undefined)	·	?
Cc1ccc(C(=O)O)cc1-c1ccc(/C=C2\SC(=O)N(CC(=O)Nc3ccccc3)C2=O)o1	-12.9%	-1.1%
Cc1cccc2cc(C(c3nnnn3C(C)(C)C)N3CCN(C(=O)c4ccco4)CC3)c(=O)[nH]c12 (centres undefined)	-20.3%	-10.0%
CCOc1ccc2nc3c(cc2c1)CN(CCOC)C(=NC)S3	-16.2%	-14.2%
O=C(NCCCn1ccnc1)c1cccc(S(=O)(=O)Nc2ccc(F)cc2)c1	-7.1%	-3.1%
Cn1c(NC(=O)C[n+]2cc(-c3ccc(F)cc3)n3c2CCC3)cc(=O)n(C)c1=O	-14.3%	-9.5%
CCC(Sc1nc(-c2ccccc2)c(C#N)c(=O)[nH]1)C(=O)Nc1cc(C)on1 (centres undefined)	i	-14.3%
COC(=O)CCCC1=CC2=CC(=O)C(C)(OC(=O)c3cccs3)C(=O)C2=CN1CCCCO (centres undefined)	-12.5%	-1.8%
CSCCC(NC(N)=O)C(=O)N(C)CC(=O)Nc1cc(C)ccc1C (centres undefined)	-12.1%	-3.2%
CCOC(=O)C1C(=O)N(C)C2(C)CC1c1ccccc1O2 (centres undefined)	-10.6%	-7.3%
COc1cc(OC)c(NC(=O)CCn2cnc3onc(-c4ccc(F)cc4)c3c2=O)cc1Cl	-18.7%	-14.7%
O=C(NCC1CCN(Cc2cccc(Cl)c2)CC1)Nc1ccc(F)c(Cl)c1	i	?
CC(C)COC(=O)NCC12C=CC(O1)C1C(=O)N(c3ccc(Cl)cc3)C(=O)C12 (centres undefined)	-9.2%	4.4%
CCOC(=O)c1ccc(Nc2c(-c3ccc(OC)cc3)nc3nc[nH]n23)cc1	-5.1%	-2.3%
